Screens as filed in PubChem BioAssay.
Mtb hypoxia inh – PubChem AID 1159583 | fluorescence inhibition, % (test concentration not listed) | actives 0.1% (n = 300,000) | M. tuberculosis hypoxia-regulated fluorescent reporter, fluorescence;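 active = 35 to 45% if threefold the growth effect, above 45% if 1.5-fold the growth effect; inactive = the rest, general growth blockers included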;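 note: wells of about 50 µL received 100 nL stock; 0% = vehicle wells and 100% = reference inhibitor wells; whole bacteria with a GFP reporter of the hypoxia response; strong numbers were not always called active; many hits fall short of the cut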
RN4220 kill – growth inhibition of S. aureus RN4220, primary screen, OD600 | 16 h | inhibition, % (no concentration beside the values) | actives 0.33% (n = 330,000);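 active = z-score of -3 or lower and OD600 up to 0.18 on both plates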;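 note: plate controls were untreated cells for no effect and reference antibiotic for full effect; stock transfer was 100 nL into about 80 µL; one replicate is shown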
BJeLR lethal – MLPCN primary cell-based screen for lethality selective to Ras in HRASV12 cells; BJeLR (HRASV12) viability, CellTiter-Glo ATP luminescence, 48 h; reference of the scale not given here; inhibition, % (no concentration beside the values); actives 0.17% (n = 300,000);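 active = replicate mean above 50%; inconclusive = above 50% but judged a plate artefact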;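 note: 50 nL library stock added to about 25 µL; numbers are from one replicate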
Autofluor counter – flagged as autofluorescent in microsphere protease counterscreen | compound autofluorescence counterscreen, microsphere flow cytometry; hits give high values | actives 3.1% (n = 360,000) | fluorescence intensity (no concentration beside the values);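 active = at least 3 SD above the mean of all compounds, about 16000 in these data; inconclusive = too few beads counted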;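 note: 100 nL of 1 mM stock went into each well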
Sa ugtP lethal – growth inhibition of ugtP-null S. aureus, primary screen, RN4220 ugtP deletion, OD600; actives 0.54% (n = 330,000); growth inhibition, % (no concentration beside the values); AID 1259309, 2017; 16 h; some inactives read as strong as hits;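 active = z-score under -3 and OD600 up to 0.15 on both plates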;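 note: plate controls were untreated wells for no effect and antibiotic for full effect; wells of about 80 µL received 100 nL stock; the first replicate is given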
PrP 5UTR inh – inhibition of PrP 5' UTR reporter expression. cell-based PrP 5' UTR mRNA reporter, plate reader. actives 0.35% (n = 340,000). inhibition, % (concentration not given with the values);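 active = every replicate at 50% or more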;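 note: 0 = median of the neutral control wells; tested in H4 reporter cells; numbers are from one replicate; inactives centre near -14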
Mtb hypoxia inh growth – recorded beside Mtb hypoxia inh, whose call it bears; growth inhibition, %; measured here: M. tuberculosis growth (absorbance);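 0% = vehicle and 100% = reference antibiotic; read after six days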
Numbers without * were called inactive; u = inconclusive; x = not tested or not shown.

SMILES	Mtb hypoxia inh	Mtb hypoxia inh growth	RN4220 kill	BJeLR lethal	Autofluor counter	Sa ugtP lethal	PrP 5UTR inh
CCN(C(=O)CSc1nnnn1-c1ccccc1OC)C1CCS(=O)(=O)C1 (centres undefined)	-3	3	-2.1	2	5911	-2	-6
CNc1c(N)n(Cc2ccccc2)c(=O)[nH]c1=O	4	10	3.9	5	6232	-3	-26
CC(C)NC(=O)NC(=O)CSc1ncc(C(F)(F)F)cc1Cl	1	5	6.8	2	22963*	-7	-7
O=C(CSc1nnnn1-c1ccccc1)NCCCN1CCCC1=O	4	7	5.4	x	2835	2	-16
Cn1c(C(C(=O)NCC2CCCO2)N(CCc2ccccc2)C(=O)Cn2nnc3ccccc32)nc2ccccc21 (centres undefined)	5	0	3.4	-7	2420	5	-10
Cc1cccn2c(=O)c3cc(C(=O)NCC4CCCO4)c(=N)n(C4CCCC4)c3nc12 (centres undefined)	-6	-3	3.2	-2	6363	2	-2
CCC(C)(C(=O)NC1CCCCC1)N(Cc1ccco1)C(=O)Cc1cccs1 (centres undefined)	10	10	3.9	3	6141	-12	18
Cn1c(SCC(=O)N2c3ccccc3Sc3ccccc32)nnc1-c1ccco1	x	x	-1.1	-5	4039	11	-12
CCN(c1ccc(C)c(C)c1)S(=O)(=O)c1c(C)[nH]c(=O)[nH]c1=O	-4	3	2.0	-1	12738	-7	-11
CCOC(=O)N1CCN(C(=O)c2ccc(N(Cc3ccccc3)S(C)(=O)=O)cc2)CC1	0	5	6.2	-2	u	9	-12
Cc1nn(C(=O)Cn2ccc([N+](=O)[O-])n2)c(C)c1Br	1	4	6.3	3	10031	14	-13
O=S(=O)(/C=C/c1ccccc1)N1CCN(c2ccccc2)CC1	x	x	2.0	6	2927	1	-18
O=C(Cn1c(=O)oc2cc(S(=O)(=O)N3CCCC3)ccc21)Nc1ccc(C(F)(F)F)cc1	-3	-1	-0.4	8	2818	-10	-6
CS(=O)(=O)c1cccc(C(=O)Nc2ccc(-c3nc4ccccc4[nH]3)cc2)c1	1	-1	-1.3	3	5583	-2	-32
CC1c2cc3c(cc2CCN1C(=O)c1cccc(Cl)c1)OCCCO3 (centres undefined)	6	3	3.0	17	5939	-1	-9
COc1ccccc1/C=N/NC(=O)NC12CC3CC(CC(C3)C1)C2	x	x	x	3	3639	x	-10
O=C(Oc1ccc(-c2cnc3ccccc3n2)cc1)c1cc([N+](=O)[O-])ccc1Cl	x	x	2.7	8	2776	2	-134
COc1ccc(-c2nc(CN3CCN(c4ccccc4OC)CC3)c(C)o2)cc1	-11	-3	2.7	-4	3376	13	-3
O=c1[nH]cc(-c2ccccc2)c(=O)[nH]1	x	x	x	-8	4008	x	-11
O=C(CSc1nnnn1-c1ccccc1)Nc1nsc(-c2ccccc2)n1	10	6	3.0	4	8178	2	-26
CCn1c(=S)sc2c(=O)n(CC(=O)Nc3ccccc3OC)c(C)nc21	5	3	0.5	2	4481	12	-12
COc1ccc(N2C(=O)/C(=C/c3ccco3)C(=O)NC2=S)cc1	11	-2	7.4	-4	3756	-3	-11
CC(NC(=O)Cn1cc(C(=O)C2CC2)c2ccccc21)c1ccccc1 (centres undefined)	x	x	-8.3	8	2982	6	-1
CCOc1ccc(N(CC(=O)NN=Cc2ccccn2)S(=O)(=O)c2ccc(Cl)cc2)cc1	0	4	-1.4	x	x	2	x
CCOc1ccc(S(=O)(=O)N/N=C(\C)c2ccc3c(c2)OCO3)cc1	x	x	x	3	6179	x	-32
The list goes on.
SMILES	Mtb hypoxia inh	Mtb hypoxia inh growth	RN4220 kill	BJeLR lethal	Autofluor counter	Sa ugtP lethal	PrP 5UTR inh
COc1ccc(NS(=O)(=O)c2cccc3cccnc23)cc1Cl	0	-1	-1.6	-11	3511	-2	0
O=C(O)[C@H](CSCc1ccccc1)NS(=O)(=O)c1ccc(F)cc1	-1	-2	2.0	1	2530	2	-22
CC(=O)C[C@H]1c2cc(C(F)(F)F)ccc2S(=O)(=O)N1c1ccccc1	x	x	x	-2	3071	x	-1
Cc1cccc(NC(=O)CC2SC(=O)N(c3ccccc3)C2=O)c1 (centres undefined)	-10	-1	5.1	8	2331	-6	-16
CCOc1ccc2ccccc2c1/C=N\NC(=O)OC	x	x	x	9	11974	x	-5
Cc1cccc(C)c1NC(=O)COc1ccc2c(C)c(Cc3ccccc3)c(=O)oc2c1	8	-4	31	15	6923	-6	-39
O=C1CC(c2ccco2)CC(O)=C1C=NCCN1CCN(C(=O)Nc2ccc(Cl)cc2)CC1 (centres undefined)	6	8	7.0	4	1935	5	-4
O=C(CCCN1C(=O)c2ccccc2C1=O)Nc1nccs1	x	x	2.4	-2	2503	2	-16
O=C(O)c1ccc2ncsc2c1	5	0	-0.3	4	x	-3	4
COc1ccc(Cl)cc1Nc1nc(NCCO)nc(N2CCCCC2)n1	15	9	8.1	-3	4406	3	-10
O=S(=O)(Nc1ccc2c(c1)nc1n2CCOC1)c1ccccc1	-3	13	-1.4	-5	19895*	-8	-3
COc1cccc2oc(-c3ccco3)cc(=O)c12	11	7	-3.5	1	4072	-12	-38
Cc1cccc(/C(N)=N/OC(=O)c2ccc(Cl)cc2Cl)c1	14	9	2.4	-4	2586	9	-26
CCn1c(/C=C/c2ccccc2C)nc2ccccc2c1=O	-5	-3	-7.0	5	4035	3	-21
COc1cccc(NC2=C(NCCO)C(=O)c3ccccc3C2=O)c1	12	6	26	-2	x	11	-30
O=C(O)CNC(=O)c1nc(-c2ccccc2)n(-c2ccccc2)n1	2	1	1.2	-8	1948	0	-24
CCCc1cc(=O)oc2cc(OCC(=O)Nc3ccccn3)ccc12	1	0	-5.3	0	4431	-1	-41
O=C(Cc1ccc(F)cc1)Nc1cccc(-c2ccc3nncn3n2)c1	11	12	1.3	-2	4704	6	-13
Cc1ccc(-n2c3c(cc(C(=O)NCCCN4CCOCC4)c2=O)C(=O)CC(C)(C)C3)cc1	x	x	9.0	1	4306	7	1
COc1ccc(-c2c(C)nn3c(Cl)c(C)c(C)nc23)cc1	-1	-3	5.7	3	4062	-2	-24
O=c1[nH]c2c(s1)C(c1cccnc1)C1C3CCC(C3)C1S2 (centres undefined)	2	8	2.1	-8	5458	19	-23
CN(CC(=O)Nc1ccc(Cl)c(S(=O)(=O)N(C)C)c1)Cc1ccccc1	8	5	1.0	1	4474	5	-40
C[C@H](NC(=O)c1ccco1)C(=O)N1CCN(c2ccc(C(F)(F)F)cn2)CC1	-5	8	-1.6	x	4121	-8	-14
Cc1ccc(-n2nnc3c(=O)n(Cc4ccccc4C)cnc32)cc1	5	9	-8.7	0	4392	-1	-24
CCn1ccnc1[C@@H]1C[C@H]2CN(Cc3cccc(Cl)c3)C(=O)[C@]23CCCN13	-5	6	-0.6	1	2766	1	-19
Later entries.
SMILES	Mtb hypoxia inh	Mtb hypoxia inh growth	RN4220 kill	BJeLR lethal	Autofluor counter	Sa ugtP lethal	PrP 5UTR inh
Cc1cc(NC(=O)Cc2ccc(Br)cc2)no1	3	0	4.2	-2	4173	17	-23
CC(=O)c1cccc(NC(=S)Nc2ccn(Cc3cccc4ccccc34)n2)c1	6	3	1.0	-1	3017	2	18
CC(C)C(=O)Nc1ccc(C(=O)N/N=C/C2CC3C=CC2C3)cc1 (centres undefined)	x	x	x	10	2035	x	-18
Cc1ccc(NS(=O)(=O)c2ccc(C(C)C)cc2)cc1S(=O)(=O)N1CCOCC1	0	4	5.0	x	3983	-6	-19
COc1ccccc1NCC(=O)NN=C1CCS(=O)(=O)c2ccc(F)cc21	4	6	8.9	x	6927	2	-16
CNc1[nH]ncc1[N+](=O)[O-]	-5	-6	3.8	-3	4678	4	-17
N#CCCN1CCCN(CCC#N)CCN(CCC#N)CCCN(CCC#N)CC1	7	0	2.0	-4	3132	5	-13
O=C(COC(=O)CCNS(=O)(=O)c1ccccc1F)Nc1nnc(-c2ccccc2)o1	-1	-4	2.8	-11	u	4	-18
CC(NC(=O)CCSc1nc(-c2ccco2)cc(C(F)(F)F)n1)c1ccccc1 (centres undefined)	2	1	12	3	3890	-6	-14
Cc1c(C(=O)c2ccccc2)oc2ccc3ccccc3c12	-3	-12	-4.4	10	x	65	-105
COc1ccc(C(=O)NCC(=O)OCC(=O)NC(=O)c2ccc(C(C)(C)C)cc2)cc1OC	-3	5	7.7	x	2845	3	-7
CCOC(=O)c1csc(NC(=O)C(C)(C)C)n1	10	6	12	7	5826	8	-14
CCOC(=O)c1csc(NC(=O)c2ccc(S(=O)(=O)N3CCCC3)cc2)n1	11	-2	-0.2	2	8207	16	-7
Oc1cccc(C=NN2CCN(c3ccccn3)CC2)c1	4	4	10	x	x	3	x
Cc1ccc(Nc2nc3nonc3[nH]c2=O)cc1Cl	17	-3	75	1	5448	76	-12
Clc1cnc(N/N=C/c2ccncc2)c(Cl)c1	x	x	x	0	5704	x	-20
CCOC(=O)N1CCN(C(=O)CSc2nc3c(cnn3-c3ccc(Cl)cc3)c(=O)[nH]2)CC1	8	15	-12	-16	5113	0	-8
COc1ccc(N2CCN(C(=O)Nc3ccccc3Cl)CC2)cc1	-1	-10	7.1	4	4525	16	-2
COc1ccc(NC(=O)c2cc(NC(=O)C3CCCCC3C(=O)O)ccc2N2CCOCC2)cc1 (centres undefined)	9	3	1.8	1	6861	-1	-17
Nc1ccc(-n2nncc2-c2ccco2)cc1	-2	11	0.6	12	11105	1	-11
COc1ccc(N=C2C=CC(=O)O2)cc1	-8	-3	3.4	x	4114	1	-26
O=C(CSc1ncn[nH]1)Nc1ccc(Br)cc1F	4	6	3.0	2	3216	-4	-21
CCc1ccccc1Nc1nc(N)nc(COC(=O)CCC(=O)c2ccc(F)cc2)n1	-6	1	-0.9	x	3657	-7	-17
CCC(Sc1nc2sc(C(=O)OC)c(C)c2c(=O)n1N)C(=O)NCC1CCCO1 (centres undefined)	-3	3	-1.4	-3	10519	0	-20
O=C(COC(=O)C1CC2CCCC(C1)C2=O)NNC(=O)c1ccc([N+](=O)[O-])cc1 (centres undefined)	-3	1	5.6	3	6541	8	-28
The listing continues.
SMILES	Mtb hypoxia inh	Mtb hypoxia inh growth	RN4220 kill	BJeLR lethal	Autofluor counter	Sa ugtP lethal	PrP 5UTR inh
COc1ccccc1-n1cnnc1SC(C)C(=O)Nc1ccc(NC(C)=O)cc1 (centres undefined)	3	0	3.3	1	8967	5	-23
O=C(CN1C(=O)c2cccc3cccc1c23)NC1CCCC1	-12	-9	-2.9	2	3818	-2	-25
O=S(=O)(c1ccc(NC(=S)NCc2ccncc2)cc1)N1CCCCC1	-5	-8	-4.1	0	u	-4	7
COCC(=O)n1cc(C(=O)OC)c2ccccc21	x	x	-0.6	3	4095	-2	-6
N#CCCN1CCCc2cc(N=Nc3ccc(C(F)(F)F)cc3)ccc21	-7	7	-12	-8	2943	13	-75
CN1CCN(c2ccc(C(N)=O)cc2N)CC1	x	x	3.0	4	4123	1	-15
O=C(Nc1cccc(S(=O)(=O)NC2=NCCCCC2)c1)c1cccnc1Cl	-6	6	3.5	0	5980	9	-10
Cc1ccc(C)c(N2CCN(S(=O)(=O)c3c(C)noc3/C=C/N(C)C)CC2)c1	x	x	-4.4	3	5291	-1	-12
COc1ccc(/C=C2\CCc3ccccc3C2=O)cc1Cn1nc(C)cc1C	14	16	-1.1	-4	3304	-13	12
Cc1scc(C(=O)NN=Cc2ccc(Cl)s2)c1C	0	-10	-8.3	x	x	-12	x
CN(C(=O)c1ccc(NC(=O)Cc2ccc(NC(=O)C3CCN(C(=O)C4CCC4)CC3)cc2)cc1)C1CCCC1	-2	1	5.1	x	3544	2	41
Cc1ccc(CNC(=O)c2ccc(NC(=O)C3=CSCCO3)cc2)cc1	-10	1	3.5	-10	5516	3	-20

Record cards (already shown). Values in the order: Mtb hypoxia inh | Mtb hypoxia inh growth | RN4220 kill | BJeLR lethal | Autofluor counter | Sa ugtP lethal | PrP 5UTR inh
Profile of O=S(=O)(c1ccc(NC(=S)NCc2ccncc2)cc1)N1CCCCC1 : -5 | -8 | -4.1 | 0 | u | -4 | 7
Profile of CN(C(=O)c1ccc(NC(=O)Cc2ccc(NC(=O)C3CCN(C(=O)C4CCC4)CC3)cc2)cc1)C1CCCC1 : -2 | 1 | 5.1 | x | 3544 | 2 | 41
Profile of COc1ccccc1-n1cnnc1SC(C)C(=O)Nc1ccc(NC(C)=O)cc1 (centres undefined) : 3 | 0 | 3.3 | 1 | 8967 | 5 | -23
